Methyltransferases = Primary Screen for Target Class Profiling of Small Molecule Inhibitors of Methyltransferases; purified enzyme, MTase-Glo SAH luminescence; active compounds read low; 25,000 tested, 3.9% active; AID 1745853, 2022; calls only at 40 µM; active = -50% or lower on at least one of six enzymes; inconclusive = the cases between; inactive = as a rule above -30% on all six;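 further: enzymes were COMT GAMT GNMT HNMT NNMT and PNMT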
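Each enzyme was reacted with SAM and its substrate, with compounds tested once at 40 uM; SAH formed was read by MTase-Glo luminescence.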
Calls only; i = inactive; ? = inconclusive; + = active, no number. On the % scale 0 is the no-effect control and ±100 the full control effect. Some of the compounds tested; count on the stated rates, not on these rows.

O=C(c1ccc2ncccc2c1)N1CC(n2ccnc2)C1
  Methyltransferases: i
COc1ccc(-c2cc3n(n2)CC(C)(C(=O)NC2CCCCC2)N(CC2CCCO2)C3=O)cc1 (centres undefined)
  Methyltransferases: i
COc1cncc(NC(=O)C2=NO[C@@H]3CN(Cc4ccccc4)C[C@H]23)c1
  Methyltransferases: i
C[C@H]1CCCN1C(=O)c1nnc(COc2ccc(F)c(F)c2)n1-c1cccnc1
  Methyltransferases: i
C=CCNC(=O)N[C@H]1CO[C@H]2[C@@H]1OC[C@@H]2Nc1nccc(-c2cccc(F)c2)n1
  Methyltransferases: i
C[C@@H]1CN(C(=O)c2cc(S(N)(=O)=O)ccc2F)CC[C@]1(C)O
  Methyltransferases: i
COc1ccc(-c2ccccc2NC(=O)C2CCCN(CC=C(C)C)C2)cc1 (centres undefined)
  Methyltransferases: i
Cc1ccc(-c2noc([C@@H]3Cc4nc[nH]c4CN3C(=O)NC3CCCCC3)n2)cc1
  Methyltransferases: i
COc1ccc(-c2cc3n(n2)CC(C)(C(=O)NCc2ccccc2OC)N(c2ccc(C)cc2)C3=O)cc1 (centres undefined)
  Methyltransferases: i
COc1ccccc1CNC(=O)C1(C)Cn2nc(-c3ccccc3)cc2C(=O)N1c1ccc2c(c1)OCO2 (centres undefined)
  Methyltransferases: i
CN(C(=O)Cn1nc2n(C)c(=O)c3ccc(C(=O)NC4CCCC4)cc3n2c1=O)c1ccccc1
  Methyltransferases: i
Cc1ccc(NC(=O)N2C[C@@H](F)C[C@H]2C(=O)N2CCCCC2)cc1F
  Methyltransferases: i
C=CC(C)(C)c1[nH]c2cc3c(cc2c1CC1NC(=O)C2=CCCN2C1=O)C=CC(C)(C)O3 (centres undefined)
  Methyltransferases: ?
CCCN1C(=O)c2c(C(=O)NCCc3ccc(C)cc3)ncn2CC1(C)C(=O)NCc1ccc(C)cc1 (centres undefined)
  Methyltransferases: i
O=c1cc(CN2CCCC(c3nccn3Cc3ccccc3)C2)[nH]c(=O)[nH]1 (centres undefined)
  Methyltransferases: i

CC(=O)N1CCN(C(=O)c2ccc3nnc(CC4CC4)n3c2)CC1
  Methyltransferases: i
CCOC(=O)c1cc2n(n1)CC(C)(C(=O)NC1CCC(C)CC1)N(c1cccc(CC)c1)C2=O (centres undefined)
  Methyltransferases: i
CN1CCN(CCCNC(=O)CCc2nnc3n(Cc4ccccc4Cl)c(=O)c4ccccc4n23)CC1
  Methyltransferases: i
CCOCCCNC(=O)C1c2c(n(C)c3ccccc23)SCC(=O)N1c1ccc2c(c1)OCO2 (centres undefined)
  Methyltransferases: i
CC(=O)N1CCC(C(=O)N2CCn3nc(Cc4ccccc4)cc3C2)CC1
  Methyltransferases: i
CC(=O)Nc1c2n(c3ccc(F)cc13)CC(C)(C(=O)NC1CCCCC1)N(Cc1ccccn1)C2=O (centres undefined)
  Methyltransferases: i
COc1cccc(C)c1C(=O)O[C@@H]1C[C@H](O[C@H]2[C@H](O)C[C@H](O[C@@H]3CCC[C@H]4[C@H]3C=C[C@@H]3CCCC/C=C/[C@H]5C=C(C(=O)O)[C@@H](C)C[C@@]56OC(=O)C(=C6O)OC(=O)[C@@]34C)O[C@@H]2C)O[C@H](C)[C@H]1O
  Methyltransferases: i
C[C@@H]1O[C@@H](O[C@H]2[C@H](O[C@H]3CO[C@@H](O[C@H]4CC[C@@]5(C)C(CC[C@]6(C)C5CC[C@]57OC[C@@]8(CC[C@](C)(CO)CC85)[C@H](O)C[C@]76C)C4(C)C)[C@H](O[C@@H]4O[C@H](CO)[C@@H](O)[C@H](O)[C@H]4O)[C@H]3O)O[C@H](CO)[C@@H](O)[C@@H]2O)[C@H](O)[C@H](O)[C@H]1O (some centres undefined)
  Methyltransferases: ?
O=C(O)CC/C=C\C[C@H]1CO[C@@H](c2ccccc2Cl)O[C@H]1c1ccccc1O
  Methyltransferases: i
COc1cccc(-c2nnc3n(CCc4ccccc4)c(=O)c4ccccc4n23)c1O
  Methyltransferases: i
COc1ccc(NC(=O)Cn2nc3nc(Nc4ccc(F)cc4)ccn3c2=O)cc1F
  Methyltransferases: i
O=c1[nH]c2ccc(S(=O)(=O)NCCc3ccc(Cl)cc3)cc2[nH]1
  Methyltransferases: i
CN(CC1CCOC1)C(=O)c1ccco1 (centres undefined)
  Methyltransferases: i
CC1(C(=O)NC2CCCC2)Cn2c(ccc2-c2ccccc2)C(=O)N1Cc1ccccc1Cl (centres undefined)
  Methyltransferases: i
CC1CCCCC1NC(=O)C1(C)Cn2c(cc3occc32)C(=O)N1Cc1ccccc1Cl (centres undefined)
  Methyltransferases: i

Cc1ccc(NC(=O)c2cc3n(n2)CC(C)(C(=O)NC2CCCCCC2)N(C)C3=O)cc1Cl (centres undefined)
  Methyltransferases: i
CCCCNC(=O)c1ncn2c1C(=O)N(C1CC1)C(C)(C(=O)NCc1ccc(OC)cc1)C2 (centres undefined)
  Methyltransferases: i
Cc1ccc(-c2ccc3ncc4c(c3n2)n(C2CCN(C(=O)[C@H](C)O)CC2)c(=O)n4C)cn1
  Methyltransferases: ?
CNC(=O)[C@@H](C1CC1)N1CCC[C@H]1C(=O)N1CCC(C)CC1
  Methyltransferases: i
Cc1ccc(CN2CCC(CNC(=O)NC(C)C)C2)cc1C (centres undefined)
  Methyltransferases: i
COc1ccccc1CNC(=O)C1(C)Cn2c(cc3ccccc32)C(=O)N1Cc1cccc(C)c1 (centres undefined)
  Methyltransferases: i
CCc1ccc(N2C(=O)c3cc4ccccc4n3CC2(C)C(=O)NCCC(C)C)cc1 (centres undefined)
  Methyltransferases: i
CC(C)NC(=O)NCC1Cn2cccc2C(=O)N1Cc1ccccc1 (centres undefined)
  Methyltransferases: i
CN(C)CC(=O)N1CCn2c3c(c4cc(C5CCCCC5)ccc42)CCCC31 (centres undefined)
  Methyltransferases: i
COC(=O)N1CCC2(C1)N=C(c1ccncc1)C(=O)N2 (centres undefined)
  Methyltransferases: i
CCc1ccccc1NC(=O)Cn1nc2n(CC(C)C)c(=O)c3ccc(C(=O)NCC(C)C)cc3n2c1=O
  Methyltransferases: i
Cc1nnc(-c2cc(-c3ccccc3Oc3ccccc3)ccn2)n1C
  Methyltransferases: i
CCOc1ccc(OCC)c(NS(=O)(=O)c2ccc3[nH]c4c(c3c2)CCCC4)c1
  Methyltransferases: i
O=C(Cc1ccc(Cl)cc1)N1CCc2c(nc3cc[nH]n3c2=O)C1
  Methyltransferases: i
O=C(COc1ccc2c(-c3ccccc3)cc(=O)oc2c1)OCc1ccccc1
  Methyltransferases: i

c1ccc(CCN2CCNc3cc(NCc4cccnc4)ncc3C2)cc1
  Methyltransferases: +
CCN1CCN(C(=O)c2ccc3nnc(-c4cccnc4)n3c2)CC1
  Methyltransferases: i
CCc1cc2c(cc3n2CC(C)(C(=O)NC2CCCCCC2)N(CCN2CCCCCC2)C3=O)s1 (centres undefined)
  Methyltransferases: i
Cc1ccn(CC(=O)NCc2cccnc2Oc2ccccc2)n1
  Methyltransferases: i
O=C(NCc1cccc(F)c1)N1CCC(n2cnnc2C2CC2)C1 (centres undefined)
  Methyltransferases: i
O[Si](CCCN1CCCCC1)(c1ccc(F)cc1)C1CCCCC1 (centres undefined)
  Methyltransferases: i
CC1(C(=O)NC2CCCCC2)Cn2nc(C3CC3)cc2C(=O)N1Cc1ccccc1Cl (centres undefined)
  Methyltransferases: i
COc1cc(/C=C/C(=O)OC[C@H]2O[C@@H](OC3CC(C)=C(C(=O)O)C(C)(C)C3)[C@H](O)[C@@H](O)[C@@H]2O)cc(OC)c1O (some centres undefined)
  Methyltransferases: i
CN1C(=O)c2cc(C(=O)NCc3ccccc3)nn2CC1(C)C(=O)NC1CCCC1 (centres undefined)
  Methyltransferases: i
O=S(=O)(NCc1nc(-c2ccccc2Cl)no1)c1ccccc1
  Methyltransferases: i
CCOc1ccc(CN2C(=O)c3c(C(=O)OC)ncn3CC2(C)C(=O)NC2CCCC2)cc1OC (centres undefined)
  Methyltransferases: i
CN1C(=O)c2cc(NC(=O)c3cccc(Br)c3)ccc2N2CCN=C12
  Methyltransferases: i
COc1ccc(-c2cc3n(n2)CC(C)(C(=O)NCc2ccccc2)N(Cc2ccc(OC)cc2OC)C3=O)cc1 (centres undefined)
  Methyltransferases: i
CCCn1c(=O)c2ccccc2n2c(SCc3cccc(C)c3)nnc12
  Methyltransferases: i
N#CC1C(=O)N=C(c2cc(Cl)ccc2O)C=C1c1cc(OCc2ccccc2)cc(OCc2ccccc2)c1 (centres undefined)
  Methyltransferases: i

Cc1nc2c(c(-c3ccc(O)cc3)n1)CN(C(=O)c1ccccc1C)CCC2
  Methyltransferases: i
Cc1cnc(N2CC[C@](C)(O)[C@@H](O)C2)nc1N(C)C
  Methyltransferases: i
CC(C)Cn1c(=O)c2ccccc2n2c(CCC(=O)NC3CC3)nnc12
  Methyltransferases: i
CC1(C)CC[C@]2(C(=O)O[C@@H]3O[C@H](CO)[C@@H](O)[C@H](O)[C@H]3O)CC[C@]3(C)C(=CCC4[C@@]5(C)C[C@@H](O)[C@H](O)[C@](C)(C(=O)O)C5CC[C@]43C)C2C1O (some centres undefined)
  Methyltransferases: i
CN1CCC2(C1)CN(Cc1ccccc1)c1ccc(C(=O)N3CCOCC3)cc12 (centres undefined)
  Methyltransferases: i
COc1cc(O)cc(C)c1C(=O)O[C@H]1[C@@H](OC(C)=O)[C@H](n2ccc(=O)[nH]c2=O)O[C@@H]1CO
  Methyltransferases: i
Cc1noc(C)c1[S+](=O)([O-])N1CCn2ncc(C(=O)NCc3ccc(Cl)nc3)c2C1
  Methyltransferases: i
COc1cccc(N2CCN(S(=O)(=O)c3cc4[nH]c(=O)[nH]c4cc3Br)CC2)c1
  Methyltransferases: i
O=C(c1ccc(Cl)cc1)N1CCN(c2ccnc3cc(Cl)ccc23)CC1
  Methyltransferases: +
Cc1c(C(=O)Nc2ccc(N3CCC(N4CCOCC4)CC3)c(C#N)c2)cnn1-c1ccc(Cl)cc1
  Methyltransferases: i
CCOc1ccc(CCNC(=O)c2cc3n(n2)CC(C)(C(=O)NC2CCCC2)N(CC)C3=O)cc1 (centres undefined)
  Methyltransferases: i
CN(CCN1C(=O)c2cc3occc3n2CC1(C)C(=O)NC1CCCCC1)C1CCCCC1 (centres undefined)
  Methyltransferases: i
CCCN1C(=O)c2c(C(=O)NCCc3ccc(OC)cc3OC)ncn2CC1(C)C(=O)NC1CCCC1 (centres undefined)
  Methyltransferases: i
CCCNc1cc(N2CCC(CCC(=O)NCCN3CCCCCC3)CC2)ncn1
  Methyltransferases: +
CC1(C(=O)NC2CCCCC2)Cn2nc(-c3cccs3)cc2C(=O)N1Cc1ccc2c(c1)OCO2 (centres undefined)
  Methyltransferases: i

O=C(c1ccncc1)N1CCC(Cc2noc(-c3ccccc3)n2)C1 (centres undefined)
  Methyltransferases: i
COc1c2c(c(C)c3c1C(=O)OC3)O[C@@]1(C)CC(O)C(C(C)(C)O)[C@](C)(CCC(=O)O)[C@H]1C2 (some centres undefined)
  Methyltransferases: i
Cc1ccc(CN2C(=O)c3cc4oc(C)cc4n3CC2(C)C(=O)NC2CCCCCC2)cc1 (centres undefined)
  Methyltransferases: i
COc1ccc(OC)c(NC(=O)N2CCn3cccc3C2C)c1 (centres undefined)
  Methyltransferases: i
CC(C)Cn1c(=O)c2ccc(C(=O)NC(C)C)cc2n2c(=O)n(CC(=O)c3ccc(Cl)cc3)nc12
  Methyltransferases: i
O=C1CCN(C(=O)Nc2ccccc2F)CCCC(C(=O)NCc2ccncc2)CCN1 (centres undefined)
  Methyltransferases: i
COc1cc(C)c(-c2nc(CN3CCOC(CCN)C3)c(C)o2)cc1C (centres undefined)
  Methyltransferases: i
CCCN1C(=O)c2cc(C(=O)NC3CCCC3)nn2CC1(C)C(=O)NC1CCCC1 (centres undefined)
  Methyltransferases: i
O=C(c1ccc(Nc2nc3ccccc3n3nnnc23)cc1)N1CCN(c2ccc(F)cc2)CC1
  Methyltransferases: i
Cc1ccc(NC(=O)c2ncn3c2C(=O)N(C2CC2)C(C)(C(=O)NCc2ccc(F)cc2)C3)c(C)c1 (centres undefined)
  Methyltransferases: i
COC(=O)c1ncn2c1C(=O)N(c1ccc(OC)c(OC)c1)C(C)(C(=O)NCc1ccccc1)C2 (centres undefined)
  Methyltransferases: i
CCCN1C(=O)c2cc3sc(CC)cc3n2CC1(C)C(=O)NC1CCCCCC1 (centres undefined)
  Methyltransferases: i
O=C(Cn1nc2n(CCc3ccccc3)c(=O)c3ccccc3n2c1=O)NCc1ccc(Cl)cc1
  Methyltransferases: i
Cn1c(=O)c2ccc(C(=O)NC3CCCCC3)cc2n2c(=O)n(Cc3ccccc3Cl)nc12
  Methyltransferases: i
Cc1nc(C)c(C(=O)N2CCc3onc(-c4cccc(F)c4)c3C2)s1
  Methyltransferases: i

Shown comma-delimited: part of the list above.
canonical_smiles,Methyltransferases
CN1C(=O)c2cc(NC(=O)c3cccc(Br)c3)ccc2N2CCN=C12,i
COc1ccc(-c2cc3n(n2)CC(C)(C(=O)NCc2ccccc2)N(Cc2ccc(OC)cc2OC)C3=O)cc1 (centres undefined),i
CCCn1c(=O)c2ccccc2n2c(SCc3cccc(C)c3)nnc12,i

(more compounds)
CCOC(=O)c1cc2n(n1)CC(C)(C(=O)NC1CCCCCC1)N(Cc1cccc(C)c1)C2=O (centres undefined)
  Methyltransferases: i
CCN1CCN(C(=O)Cn2c(=O)oc3cc(S(=O)(=O)NCc4ccccc4)ccc32)CC1
  Methyltransferases: i
COCCn1c(C)cnc1C1CCN(S(=O)(=O)c2ccc(C#N)cc2)C1 (centres undefined)
  Methyltransferases: i
COc1ccc(CC(=O)Nc2ccc3n(c2=O)C[C@H]2C[C@@H]3CN(C(=O)c3ccc(-c4ccccc4)cc3)C2)cc1
  Methyltransferases: i
COc1ccccc1CN1C(=O)c2cc3ccccc3n2CC1(C)C(=O)NCCC(C)C (centres undefined)
  Methyltransferases: i
Cc1cc2c(cc3n2CC(C)(C(=O)NC2CCCCCCC2)N(CCC(C)C)C3=O)o1 (centres undefined)
  Methyltransferases: i
O=C(Nc1cccnn1)N1CCC(=Cc2cccc(Oc3ccc(C(F)(F)F)cn3)c2)CC1
  Methyltransferases: i
COc1ccc(-c2nnc3n(Cc4ccccc4)c(=O)c4ccccc4n23)cc1OC
  Methyltransferases: i
Cc1ccc(CN2CCCn3nc(C(=O)NCCc4cccs4)cc3C2=O)cc1
  Methyltransferases: i

Screens (PubChem)
